Mtb hypoxia inh: PubChem AID 1159583; M. tuberculosis hypoxia-regulated fluorescent reporter, fluorescence; fluorescence inhibition, % (test concentration not listed); hit rate 0.1% among 300,000;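 active means 35 to 45% if threefold the growth effect, above 45% if 1.5-fold the growth effect; inactive means the rest, general growth blockers included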;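 further: wells of about 50 µL received 100 nL stock; 0% = vehicle wells and 100% = reference inhibitor wells; whole bacteria with a GFP reporter of the hypoxia response; strong numbers were not always called active; many hits fall short of the cut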
BJeLR viability: MLPCN primary cell-based screen for lethality selective to Ras in HRASV12 cells; BJeLR (HRASV12) viability, CellTiter-Glo ATP luminescence, 48 h; reference of the scale not given here; inhibition, % (concentration not given with the values); hit rate 0.17% among 300,000; AID 1554, 2009;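 active means replicate mean above 50%; inconclusive means above 50% but judged a plate artefact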;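 further: 50 nL library stock added to about 25 µL; numbers are from one replicate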
PrP UTR inh: inhibition of PrP 5' UTR reporter expression | cell-based PrP 5' UTR mRNA reporter, plate reader | inhibition, % (concentration not given with the values) | hit rate 0.35% among 340,000;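 active means every replicate at 50% or more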;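 further: 0 = median of the neutral control wells; tested in H4 reporter cells; numbers are from one replicate; inactives centre near -14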
Autofluor counter: compound fluorescence in toxin protease inhibitor counterscreen. compound autofluorescence counterscreen, microsphere flow cytometry; active compounds read high. fluorescence intensity (test concentration not listed). hit rate 3.1% among 360,000;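 active means at least 3 SD above the mean of all compounds, about 16000 in these data; inconclusive means too few beads counted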;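 further: 100 nL of 1 mM stock went into each well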
ugtP null kill: growth inhibition of ugtP-null S. aureus, primary screen, RN4220 ugtP deletion, OD600 | hit rate 0.54% among 330,000 | 16 h; some inactives read as strong as hits | growth inhibition, % (concentration not given with the values) | AID 1259309, 2017;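 active means z-score under -3 and OD600 up to 0.15 on both plates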;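 further: plate controls were untreated wells for no effect and antibiotic for full effect; wells of about 80 µL received 100 nL stock; the first replicate is given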
RN4220 kill: growth inhibition of S. aureus RN4220, primary screen, OD600; 16 h; inhibition, % (test concentration not listed); hit rate 0.33% among 330,000;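 active means z-score of -3 or lower and OD600 up to 0.18 on both plates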;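 further: plate controls were untreated cells for no effect and reference antibiotic for full effect; stock transfer was 100 nL into about 80 µL; one replicate is shown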
Mtb hypoxia inh growth: second read-out of Mtb hypoxia inh, no call of its own (marks repeat the call); growth inhibition, %; measured here: M. tuberculosis growth (absorbance);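 0% = vehicle and 100% = reference antibiotic; read after six days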
Active calls of the source: *; ? = inconclusive; nt = not tested or not shown; & = joins results of further samples; ! = repeats disagree.

SMILES,Mtb hypoxia inh,Mtb hypoxia inh growth,BJeLR viability,PrP UTR inh,Autofluor counter,ugtP null kill,RN4220 kill
CC(=O)N[C@@H](Cc1c[nH]c2ccccc12)C(=O)OCc1ccc(C#N)cc1,11,2,4,-26,3821,0,8.4
Cc1cc(C)cc(NS(=O)(=O)c2ccc3c(c2)c(=O)n(C)c(=O)n3C)c1,1,0,29,4,9892,-16,7.3
Cn1c(=O)[nH]c(=O)c2c1[nH]c(=S)n2CCCc1ccccc1,-1,4,-8,-91,3966,-1,-1.6
CCc1c(C)nc(Nc2nc(C)c3cc(OC)ccc3n2)[nH]c1=O,nt,nt,-4,-49,4630,1,4.1
CCOC(=O)C1C2COc3ccccc3C2N2C(=O)N(c3ccc(OC)cc3)C(=O)[C@@]12C (some centres not stated),6,0,nt,nt,nt,-2,6.7
O=C(COC(=O)CNC(=O)c1ccc([N+](=O)[O-])o1)Nc1ncc(C(F)(F)F)cc1Cl,9,2,nt,-22,8148,3,5.7
COc1cccc2c(SCC(=O)N/N=C/c3ccccc3)cc(C)nc12,nt,nt,6,4,2429,nt,nt
O=C(NN=Cc1ccc(N2CCOCC2)s1)c1ccc([N+](=O)[O-])cc1,7,10,nt,-9,3496,0,3.3
CC(=O)OCC(=O)Nc1ccc(Cl)cc1Cl,19,8,0,-25,3384,-2,-5.4
O=C(O)c1ccc(NC(=O)c2cccc(N3C(=O)C4C5CCC(C5)C4C3=O)c2)cc1 (configuration not stated),5,0,-2,-6,2412,0,-1.1
Cc1cc(N2CCN(C3CCCC3)CC2)n2c(nc3ccccc32)c1C#N,-5,12,-1,-5,2257,-1,-0.8
Cc1ccc(S(=O)(=O)NCc2ccc(C(=O)NC3CCC(C)CC3)cc2)cc1 (configuration not stated),11,3,3,-10,6290,-10,2.5
CN(C)C=NC(=O)c1ccc([N+](=O)[O-])c(CS(=O)(=O)c2ccc(Cl)cc2)c1,nt,nt,15,-12,3091,0,-3.4
Cc1nc2ccccc2c(=O)n1NC(=O)CCC(=O)O,-2,-3,-4,-28,4120,-2,0.5
O=S(=O)(NN=C1CC(c2ccccc2)Oc2ccccc21)c1ccc(Br)cc1 (configuration not stated),-5,-4,nt,nt,nt,14,11

Some of these compounds in order of number of heavy atoms, rising:
SMILES,Mtb hypoxia inh,Mtb hypoxia inh growth,BJeLR viability,PrP UTR inh,Autofluor counter,ugtP null kill,RN4220 kill
Cc1nc2ccccc2c(=O)n1NC(=O)CCC(=O)O,-2,-3,-4,-28,4120,-2,0.5
Cc1cc(N2CCN(C3CCCC3)CC2)n2c(nc3ccccc32)c1C#N,-5,12,-1,-5,2257,-1,-0.8
CCOC(=O)C1C2COc3ccccc3C2N2C(=O)N(c3ccc(OC)cc3)C(=O)[C@@]12C (some centres not stated),6,0,nt,nt,nt,-2,6.7

Additional records
SMILES,Mtb hypoxia inh,Mtb hypoxia inh growth,BJeLR viability,PrP UTR inh,Autofluor counter,ugtP null kill,RN4220 kill
O=C(NNC(=O)C1CC(=O)N(Cc2ccccc2)C1)c1ccc(Br)cc1 (configuration not stated),-3,0,4,-11,6226,14,3.1
COc1ccc(C2CC(=O)C=C(c3c(OC)cccc3OC)C2)cc1 (configuration not stated),11,1,nt,nt,nt,-10,2.8
Cc1cccc(N2CCN(C(=O)c3ccc(Cl)c(S(=O)(=O)NCc4ccco4)c3)CC2)c1C,6,10,-9,-2,3231,12,1.6
COc1ccc(CCNC(=O)c2cc3c(=O)n4ccccc4nc3n(CCCN3CCOCC3)c2=N)cc1OC,nt,nt,1,-15,5455,nt,nt
FC(F)(F)c1cnc(/C=C/Nc2ccccc2Cl)c(Cl)c1,9,5,-1,-23,22771*,6,5.8
CC(=NCCC(c1ccccc1)c1ccccc1)c1c(O)n(C)c(=O)n(C)c1=O,5,4,8,-12,2362,31,1.3
COc1ccc(C(=O)NCCC2=CCCCC2)cc1,nt,nt,-5,-11,7858,nt,nt
O=C(NCc1ccccc1)C1CCCN(S(=O)(=O)c2cccc3nsnc23)C1 (configuration not stated),6,1,3,-6,6260,6,1.0
O=C(O)c1ccc(NC(=O)c2cccs2)cc1,3,4,-4,-5,23223*,-1,1.1
COc1cccc(-n2c(SCC(=O)NCCc3ccccc3)nnc2-c2ccoc2C)c1,nt,nt,-16,-3,3842,4,1.7
Clc1ccccc1C1=CC(c2ccco2)n2ncnc2N1 (configuration not stated),12,8,-4,-6,4856,-5,1.6
C=CCn1c(SCC(=O)Nc2cc(C)on2)nnc1-c1ccccc1OC,0,2,nt,-22,2736,12,11
Cc1ccc(NC(=S)N(CCN2CCCCC2)Cc2ccco2)cc1Cl,13,6,8,-29,4756,-71,6.7
COc1ccccc1C(=O)NCCCn1cc(Br)c(C)n1,6,11,3,5,18046*,-3,3.5
Cc1ccc(NC(=O)c2ccco2)c(NC(=O)Cc2cccs2)c1,12,7,10,-9,15968,-7,4.7
COc1ccc(CN2C(=O)C(CC(C)C)Nc3ncnc(N4CCN(c5ccccn5)CC4)c32)cc1 (configuration not stated),-3,14,-4,-9,4012,1,-0.5
CCCCn1c(N)c(N(CC)C(=O)c2cc(S(=O)(=O)N3CCCCCC3)ccc2OC)c(=O)[nH]c1=O,6,3,9,0,nt,2,2.9
Brc1ccc(-c2csc(-c3c[nH]c4ccccc34)n2)cc1,nt,nt,3,-51,4999,75,39
CCOCCCn1c(=NC(C)=O)c(C(=O)OCC)cc2c(=O)n3ccccc3nc21,-5,5,-5,-8&-9,23789*!,0,4.5
CCNc1c(NS(=O)(=O)c2ccc(OC)c(Cl)c2)c(=O)oc2ccccc12,3,-2,-5,-21,4973,-1,5.1
COC(=O)c1c(NC(=O)Cc2cccs2)sc(C(=O)N2CCCCC2)c1C,7,5,-12,-5,4949,-2,5.1
Cc1nnc2n1NC(c1ccc(Cl)cc1)C(C(=O)N(C)C1CCCCC1)S2 (configuration not stated),0,11,-3,-59,2537,2,2.8
Cc1sc(NC(=O)C2CCCCC2C(=O)O)c(C(N)=O)c1C (configuration not stated),-14,-2,0,-28,23098*,3,0.2
CC(C)c1ccc(NC(=S)Nc2ccc(OC(F)(F)F)cc2)cc1,19,11,5,4,4711,-18,2.1
CC(=O)Nc1cccc(-c2csc(NCc3ccco3)n2)c1,10,9,-1,-23,8453,-16,3.5
Cc1nnc(NC(=O)Cn2nc(C)c3ccccc3c2=O)s1,-1,2,7,-15,2406,5,1.5
CC(CC(=O)NCCCN1CCOCC1)=NNC(=O)COc1cccc2ccccc12,11,2,nt,nt,nt,8,7.6
O=C(O)/C(=C\c1cccs1)Sc1nnc(-c2ccc(F)cc2)o1,2,3,2,-15,3239,5,-4.4
COc1ccccc1/C=N/N1C(=O)C2C3C=CC(CC3)C2C1=O (configuration not stated),nt,nt,-8,-4,3616,nt,nt
O=C(CCOc1ccccc1)Nc1ccc(Br)cc1,5,9,-4,-33,4033,3,-5.2
COc1ccc(CN2C(CC(C)=O)c3cc(C(F)(F)F)ccc3S2(=O)=O)cc1 (configuration not stated),11,10,nt,nt,nt,-5,3.3
Cc1ccc(N(C(=O)c2cnccn2)C(C(=O)NC2CCCCC2)c2ccc(O)cc2)cc1 (configuration not stated),-15,-7,9,-24,4113,1,0.7
CCN(CC)S(=O)(=O)c1ccc(N(C)Cc2ccc(C(F)(F)F)cc2)nc1,nt,nt,-1,-15,2529,7,2.7
O=C(COC(=O)CN1C(=O)C2CCCCC2C1=O)Nc1cc(S(=O)(=O)N2CCOCC2)ccc1Cl (configuration not stated),5,-1,12,-15,2456,11,4.7
COc1cc(/C=N/NC(=S)NCc2ccccc2)ccc1OCC#N,nt,nt,6,-12,2859,nt,nt
Cc1nc(Nc2ccccc2)sc1-c1ccccc1,1,-8,0,-73,2494,17,-8.9
CC(=O)c1ccc(NC(=O)c2ccc(C)c(S(=O)(=O)N3CCOCC3)c2)cc1,7,6,-1,-11,7186,0,2.3
CC(=O)NC(Cc1ccccc1)C(=O)OCC(=O)c1ccc(Cl)cc1 (configuration not stated),2,-2,9,-3,2514,-2,-4.8
CCn1c(SCC(=O)Nc2nccc(C)n2)nc2ccccc21,-9,3,5,-7,4740,9,3.4
CCCn1c(N)c(N(CCOC)C(=O)c2cc3c(s2)CCC(CC)C3)c(=O)[nH]c1=O (configuration not stated),24,10,nt,-15,3942,2,0.2
COc1ccc(CON=Cc2c(C)[nH]c(=O)[nH]c2=O)cc1,-7,0,nt,nt,nt,0,5.2
CC(C)[C@H](N)C(=O)NCC1CCC(C(=O)N[C@@H](Cc2ccccc2)C(=O)O)CC1 (some centres not stated),-4,-6,nt,nt,nt,-6,-3.1
CCCCC[C@H]1CN(Cc2ccccc2)C(=O)[C@@H]1CC(=O)NCc1ccccc1,nt,nt,-6,-15,4132,nt,nt
CC(C)C(=O)Nc1nnc(SCC(=O)NCc2ccc3c(c2)OCO3)s1,13,4,27,-16,4537,6,2.3
CCCCN(C)c1c(N2CCC(C(=O)OCC)CC2)c(=O)c1=O,8,-1,-11,-2,5129,-1,2.4
Cc1onc(-c2c(F)cccc2Cl)c1C(=O)OCC(=O)Nc1cccc(S(=O)(=O)N(C)C)c1,-4,8,nt,-21,3814,-5,-2.8
CN(C)S(=O)(=O)c1cccc(NC(=O)CCc2nc3cc(S(=O)(=O)N4CCOCC4)ccc3n2C)c1,2,-4,-2,4,?,1,2.2
COc1cc(NC(=O)Cc2ccccc2)ccc1NC(=O)Cc1ccccc1,18,5,-16,-12,3134,7,6.2
COc1ccc(C(=O)CSc2nnn(-c3cccc(NC(C)=O)c3)n2)cc1,6,2,16,-74,4299,-19,8.6
Cc1cc(=O)n2c(C)n[nH]c2n1,nt,nt,nt,-23,4450,-2,-3.6
COc1ccc(OC)c(S(=O)(=O)NCC(=O)O)c1,10,0,9,-16,4685,-3,3.5
COC(=O)COc1ccc(S(=O)(=O)NCc2ccc3c(c2)OCO3)cc1,16,6,-20,-16,3392,-3,6.8
O=C1COc2ccc(C(=O)COC(=O)CNC(=O)c3ccccc3)cc2N1,4,5,-7,-19,2254,-2,3.5
COc1cc(/C=N/NC(=O)c2cc(C34CC5CC(CC(C5)C3)C4)[nH]n2)ccc1O,nt,nt,-4,-11,2745,nt,nt
O=C(CN1C2CCCC1CC(NC(=O)C1CCCCC1)C2)Nc1ccccc1 (configuration not stated),-4,-1,6,-17,4355,5,1.9
O=C(C1CCCO1)N1CCN(C(=S)Nc2cccc(Cl)c2)CC1 (configuration not stated),6,4,-9,2,2140,6,4.5
COc1ccc(N(CC(=O)NCc2ccco2)C(=O)CCC(=O)Nc2ccccn2)cc1,-1,-2,-9,-17,5710,13,-0.1
Brc1ccc(-c2csc(NN=Cc3cccnc3)n2)cc1,0,0,nt,nt,nt,44,7.5
Cc1cc(=O)[nH]c(N=C(N)Nc2ccc(Oc3ccccc3)cc2)n1,12,7,nt,nt,nt,5,6.4
Cc1cccc(NS(=O)(=O)c2ccc(C)c(C(=O)NNC(=O)c3csc(N4CCOCC4)n3)c2)c1,3,0,nt,-18,3018,0,-0.7

(continued)
SMILES,Mtb hypoxia inh,Mtb hypoxia inh growth,BJeLR viability,PrP UTR inh,Autofluor counter,ugtP null kill,RN4220 kill
O=S(=O)(NN=Cc1cccnc1)c1ccc(Cl)c(Cl)c1,14,4,nt,nt,nt,4,9.8
COc1ccc(OCc2cc(C(=O)N(Cc3nccn3C)C(C)C)no2)c2ccccc12,6,3,2,-86,5632,-6,2.6
O=C(NCC1CCCO1)c1ccccn1 (configuration not stated),5,12,-5,2,3364,-4,5.1
O=C(COC(=O)C12CC3CC(CC(Br)(C3)C1)C2)Nc1cccnc1Cl,-8,-2,-4,-2,3209,1,-1.3
Cc1ccccc1Nc1nnc(SCC(=O)NCc2cccs2)s1,13,11,7,-29,2721,7,3.1
Cc1cc(NC(=O)C(C)Oc2ccc(Cl)cc2Cl)no1 (configuration not stated),-10,-1,-12,-17,3621,-8,2.7
CC(=O)C1(O)CCC2C3CCC4CC(O)CCC4(C)C3C(=O)CC21C (configuration not stated),5,0,nt,16,2881,-3,8.6

High-throughput results deposited in PubChem BioAssay by several laboratories.
